# Vaccinia inh: Vaccinia orthopox stage-specific inhibition; activity change (mCherry), % (concentration not given with the values); 0.01% of 89,000 active; AID 1053133; Vaccinia-infected cells, mCherry/Venus stage reporter fluorescence; stronger effect = lower value; some inactives read as strong as hits;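 active = mCherry past -33% and 40 or more points under the early reporter, replicates agreeing; inconclusive = past -33% without that gap or agreement; tested in A549 cells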;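 also: scaled between vehicle wells and reference inhibitor wells; 23 nL library stock went into each well; one replicate is shown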
# Vaccinia inh Venus: second read-out of Vaccinia inh, no call of its own (marks repeat the call); activity change (Venus), %; measured here: Venus reporter, other viral stage;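 negative = less Venus signal; first of two replicates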
# Numbers without * were called inactive; ? = inconclusive; / = not tested or not shown. Some of the compounds tested, so the mix of outcomes need not match the whole.
SMILES,Vaccinia inh,Vaccinia inh Venus
COCC(=O)Nc1ccc2c(c1)OC[C@@H](C)N(C)C[C@H](C)[C@@H](OC)CN(C)C2=O,10.0,5.6
C[C@@H]1CN([C@H](C)CO)C(=O)Cc2cc(NC(=O)Cc3ccccc3)ccc2O[C@@H]1CN(C)C(=O)Nc1ccc2c(c1)OCO2,15.2,-3.5
C[C@H]1CN([C@@H](C)CO)C(=O)Cc2cc(NS(=O)(=O)c3ccccc3)ccc2O[C@H]1CN(C)C,13.1,1.7
C[C@H](NC(=O)C[C@H]1CC[C@@H](NC(=O)Nc2ccc3c(c2)OCO3)[C@H](CO)O1)c1ccccc1,3.1,8.4
CC(C)CC#Cc1cnc2c(c1)C(=O)N([C@@H](C)CO)C[C@H](C)[C@H](CN(C)Cc1ccccn1)O2,10.4,-8.3
C[C@@H]1CCCCO[C@@H](CN(C)S(=O)(=O)c2ccccc2)[C@H](C)CN([C@@H](C)CO)C(=O)c2cc(NC(=O)NC3CCCCC3)ccc2O1,-16.6,-10.7
CCN1[C@@H]2c3ccc(-c4cccnc4)c(=O)n3C[C@H]1[C@H](CO)[C@H]2C(=O)NCc1ccccc1,3.5,-0.3
O=C(N[C@H]1CC[C@@H](CCNS(=O)(=O)c2ccccc2)O[C@H]1CO)c1cccc(F)c1,1.2,-11.1
COC(=O)C[C@H]1CC[C@@H](NC(=O)c2ccccc2)[C@H](CO)O1,4.5,8.2
COCC(=O)N(C)C[C@H]1Oc2ncc(C3=CCCCC3)cc2C(=O)N([C@@H](C)CO)C[C@@H]1C,2.4,4.8
C[C@H](CO)N1C[C@H](C)[C@@H](CN(C)S(=O)(=O)c2cccs2)Oc2c(NC(=O)c3nc4ccccc4s3)cccc2C1=O,-34.2,-34.5
C[C@H]1CN([C@@H](C)CO)C(=O)c2cccc(NS(=O)(=O)c3cn(C)cn3)c2O[C@@H]1CN(C)C(=O)NC1CCCCC1,15.5,13.5
O=C(Nc1ccccc1)N1CCCCN2[C@H](C1)[C@H](c1ccc(C#CC3CC3)cc1)[C@@H]2CO,-32.0,-29.7
O=S(=O)(NC1CCN(Cc2ccc(OCCO)cc2)CC1)c1cc(Cl)ccc1Cl,-16.6,-10.0
COc1ccc(CN(C)C[C@H]2OCc3cnnn3CCCC(=O)N([C@@H](C)CO)C[C@H]2C)cc1,-3.8,4.8
C[C@H](CO)N1C[C@H](C)[C@H](CN(C)C(=O)Nc2cccc(Cl)c2Cl)OCc2ccccc2-c2c(n(C)c3ccccc23)C1=O,?,/
COCC(=O)N1[C@H](C#N)[C@H](c2ccccc2-c2ccccc2F)[C@@H]1CO,7.4,4.6
C[C@H]1CN([C@@H](C)CO)C(=O)c2cccc(NC(=O)NC3CCCCC3)c2O[C@H]1CN(C)C(=O)Nc1ccc(C(F)(F)F)cc1,?,/
CO[C@H]1CN(C)C(=O)c2cc(NC(=O)NC3CCCC3)ccc2OC[C@@H](C)N(C)C[C@@H]1C,6.2,4.0
COc1ccc(CN(C)C[C@H]2Oc3ccc(N(C)C)cc3CC(=O)N([C@@H](C)CO)C[C@H]2C)cc1,-15.8,-13.6
COc1ccc(NC(=O)N(C)C[C@H]2Oc3c(NC(=O)Nc4cccc5ccccc45)cccc3C(=O)N([C@H](C)CO)C[C@H]2C)cc1,-10.4,-8.5
C[C@H](CO)N1C[C@H](C)[C@H](CN(C)Cc2cncnc2)Oc2ncc(-c3cncnc3)cc2C1=O,9.0,1.9
CCC(=O)N(C)C[C@H]1Oc2cc(-c3ccccc3C)ccc2S(=O)(=O)N([C@H](C)CO)C[C@@H]1C,-27.3,-16.1
C[C@H]1CCCCO[C@@H](CN(C)Cc2ccccc2)[C@@H](C)CN([C@@H](C)CO)C(=O)c2cc(NC(=O)NC3CCCCC3)ccc2O1,?,/
COc1ccc(S(=O)(=O)N[C@H]2CC[C@H](CCNC(=O)CN3CCOCC3)O[C@H]2CO)cc1,5.7,10.4
# (cont.)
SMILES,Vaccinia inh,Vaccinia inh Venus
Cc1cc(C(=O)Nc2cccc3c2O[C@H](CN(C)C(=O)Nc2c(C)noc2C)[C@@H](C)CN([C@H](C)CO)C3=O)n(C)n1,17.8,10.1
CS(=O)(=O)N1CC2(C1)[C@@H](c1ccccc1)[C@H](CO)N2Cc1ccccn1,7.0,15.1
CN(C)CCCNC(=O)C[C@H]1C=C[C@H](NS(=O)(=O)c2ccccc2)[C@@H](CO)O1,-3.7,-4.9
CN(C)C(=O)C[C@@H]1CC[C@H]2[C@@H](COc3ccc(NC(=O)C4CCCCC4)cc3C(=O)N2C)O1,30.4,20.8
CCCC(=O)Nc1ccc2c(c1)OC[C@H](C)N(S(=O)(=O)c1cn(C)cn1)C[C@H](C)[C@@H](OC)CN(C)C2=O,8.7,1.2
CC(C)(O)C#Cc1ccc([C@H]2[C@@H](CO)N3CCCCN(Cc4ccccc4F)C[C@@H]23)cc1,-8.7,-12.0
O=C(Cc1ccccn1)N1CC(=O)N2[C@H](CO)[C@H](c3ccc(C#CC4CCCCC4)cc3)[C@@H]2C1,-23.5,-11.8
COCC(=O)Nc1ccc2c(c1)C(=O)N(C)[C@@H]1CC[C@@H](CC(=O)NCCc3ccccc3)O[C@@H]1CO2,-3.8,-7.9
O=C(NCc1cccc(F)c1)[C@H]1[C@H](CO)[C@H]2Cn3c(cccc3=O)[C@@H]1N2C(=O)c1cnccn1,9.7,1.5
C[C@@H]1CN([C@H](C)CO)C(=O)c2cccc(N(C)C)c2O[C@H]1CN(C)Cc1ccc(Cl)c(Cl)c1,?,/
CO[C@H]1CC[C@@H]2CCN(C)C(=O)CC3(CCCCC3)CN(C)C(=O)c3cc(C#N)ccc3OC[C@@H]1O2,1.7,-1.4
C[C@H](CO)N1C[C@H](C)[C@@H](CN(C)C)Oc2ccc(N(C)C)cc2CC1=O,9.8,2.8
C[C@H]1CN([C@@H](C)CO)C(=O)Cc2cc(NC(=O)Nc3cccc4ccccc34)ccc2O[C@H]1CN(C)C(=O)Nc1ccc2c(c1)OCO2,9.6,10.3
O=C(N[C@H]1CC[C@H](CCn2cc(-c3ccccn3)nn2)O[C@@H]1CO)c1ccccc1,5.6,3.6
O=C(C[C@@H]1CC[C@H]2[C@@H](COC[C@H](O)CN2S(=O)(=O)c2ccccc2)O1)NCCN1CCCC1,20.2,5.2
C[C@@H]1CCCCO[C@@H](CN(C)S(C)(=O)=O)[C@@H](C)CN([C@H](C)CO)C(=O)c2cc(NC(=O)Cc3ccccc3)ccc2O1,7.9,2.5
O=C([C@@H]1N[C@@H]2c3ccc(-c4ccccc4F)c(=O)n3C[C@@H]2[C@H]1CO)N1CCCCC1,-10.1,-6.9
CNC[C@H]1OCCCC[C@@H](C)Oc2ccc(NC(=O)c3ccccc3)cc2C(=O)N([C@@H](C)CO)C[C@H]1C,-5.8,8.2
CO[C@H]1CN(C)C(=O)c2cc(NC(=O)c3ccc(F)cc3)ccc2OC[C@@H](C)N(C)C[C@H]1C,-3.5,-0.2
OC[C@@H]1[C@H](c2ccc(-c3cccnc3)cc2)[C@@H]2CN(CC3CC3)CCCCN12,5.2,10.2
CN(C)c1ccc2c(c1)[C@@H]1C[C@@H](CC(=O)NC3CCCCC3)O[C@@H](CO)[C@@H]1O2,4.6,12.8
COc1cccc(NC(=O)C[C@H]2CC[C@H]3[C@@H](COc4ccc(NC(C)=O)cc4C(=O)N3C)O2)c1,5.5,5.3
C[C@H]1CN([C@@H](C)CO)C(=O)CCCn2nncc2CO[C@H]1CN(C)C,3.8,1.3
COCC(=O)N1C[C@@H](C)[C@H](OC)CN(C)C(=O)c2cc(NC(=O)c3cnccn3)ccc2OC[C@@H]1C,11.5,4.1
CCC(=O)N1[C@@H]2c3cccc(=O)n3C[C@H]1[C@H](CO)[C@H]2C(=O)N1CCCCC1,6.2,7.5
# Further compounds:
SMILES,Vaccinia inh,Vaccinia inh Venus
C[C@@H]1CCCCO[C@@H](CN(C)Cc2ccncc2)[C@@H](C)CN([C@@H](C)CO)C(=O)c2cc(NC(=O)c3ccccc3)ccc2O1,-6.2,-3.1
C[C@@H]1CCCCO[C@H](CN(C)S(=O)(=O)c2ccccc2)[C@@H](C)CN([C@H](C)CO)C(=O)c2cc(NC(=O)Nc3cccc4ccccc34)ccc2O1,18.2,8.8
CS(=O)(=O)Nc1ccc2c(c1)[C@@H]1C[C@@H](CC(=O)NCCc3ccccc3)O[C@H](CO)[C@@H]1O2,-2.7,0.0
C[C@H]1CCCCO[C@H](CN(C)C(=O)CCC(F)(F)F)[C@@H](C)CN([C@@H](C)CO)C(=O)c2cc(NS(=O)(=O)c3ccc(Cl)cc3)ccc2O1,?,/
CNC[C@@H]1Oc2ccc(NS(=O)(=O)c3ccc(F)cc3)cc2C(=O)N([C@@H](C)CO)C[C@H]1C,13.2,7.7
CC(C)(C)[S@](=O)N1Cc2cc(C(=O)N3CCOCC3)nc(-c3cccc(Br)c3)c2[C@@H]1CCO,18.4,14.3
CC(C)NC(=O)NCC[C@@H]1CC[C@@H](NC(=O)CN(C)C)[C@@H](CO)O1,0.2,4.7
O=C(c1ccncc1)N1C[C@@H]2[C@H](c3ccccc31)[C@H](CO)N2C(=O)c1ccccc1F,8.6,12.4
C[C@H](CO)N1C[C@H](C)[C@@H](CN(C)Cc2cccc(C(=O)O)c2)OCc2ccccc2-c2ccccc2C1=O,23.2,7.4
O=C(C[C@H]1CC[C@H]2[C@@H](COC[C@@H](O)CN2C(=O)C2CC2)O1)NCc1ccccc1Cl,9.9,6.9
CCN1[C@@H]2c3ccc(-c4ccncc4)c(=O)n3C[C@@H]2[C@@H](CO)[C@@H]1C(=O)NCc1ccccc1,5.8,9.1
CC(C)NC(=O)N(C)C[C@H]1Oc2cc(-c3ccccc3F)ccc2S(=O)(=O)N([C@H](C)CO)C[C@@H]1C,-17.4,-7.7
CCCNC(=O)Nc1ccc2c(c1)C(=O)N(C)C[C@@H](OC)[C@@H](C)CN(C(=O)c1ccccc1F)[C@@H](C)CO2,15.1,6.8
O=C(Nc1ccccc1F)N[C@H]1CC[C@H](CCNS(=O)(=O)c2ccc(F)cc2)O[C@@H]1CO,-7.5,-4.4
C[C@@H]1CN([C@@H](C)CO)C(=O)Cc2cc(NC(=O)Nc3ccc(F)cc3)ccc2O[C@@H]1CN(C)S(C)(=O)=O,4.5,11.1
O=C(C[C@H]1C=C[C@@H](NC(=O)Nc2ccc3c(c2)OCO3)[C@@H](CO)O1)NCc1ccc(Cl)cc1,2.8,-0.4
O=C(NCC[C@@H]1CC[C@H](NC(=O)C2CCCCC2)[C@@H](CO)O1)c1cnccn1,5.7,6.0
CO[C@@H]1CN(C)C(=O)c2cc(NC(C)=O)ccc2OC[C@@H](C)N(S(C)(=O)=O)C[C@H]1C,13.5,7.5
O=C(C[C@H]1C[C@@H]2c3cc(NC(=O)C4CCOCC4)ccc3O[C@@H]2[C@H](CO)O1)NCc1cc(F)ccc1F,10.3,3.2
C[C@@H]1CCCCO[C@H](CN(C)S(=O)(=O)c2cn(C)cn2)[C@H](C)CN([C@@H](C)CO)C(=O)c2cc(NC(=O)CCCN(C)C)ccc2O1,21.4,8.9
C[C@@H](NC(=O)C[C@@H]1C[C@H]2c3cc(NC(=O)c4cccnc4)ccc3O[C@H]2[C@H](CO)O1)c1ccccc1,-7.1,7.5
C[C@H]1CN([C@@H](C)CO)C(=O)c2cccc(NS(=O)(=O)c3ccc(F)cc3)c2O[C@H]1CN(C)S(=O)(=O)c1ccccc1,15.8,9.1
C[C@@H]1CN([C@@H](C)CO)C(=O)c2cc(-c3cccc(F)c3)cnc2O[C@H]1CN(C)CC1CCCC1,-32.4,-21.9
C[C@@H]1CN([C@H](C)CO)C(=O)Cc2cc(NC(=O)C3CCCCC3)ccc2O[C@@H]1CN(C)Cc1ccc(C(=O)Nc2ccccc2N)cc1,-16.2,-13.6
COc1ccc(S(=O)(=O)N(C)C[C@@H]2Oc3ccc(NC(=O)CCN4CCOCC4)cc3CC(=O)N([C@@H](C)CO)C[C@H]2C)cc1,-3.7,2.8
# The listing continues.
SMILES,Vaccinia inh,Vaccinia inh Venus
CO[C@@H]1CN(C)C(=O)c2cc(NC(=O)C3CC3)ccc2OC[C@H](C)N(C(=O)Cc2ccccn2)C[C@@H]1C,5.9,-0.5
C[C@@H]1CN([C@H](C)CO)C(=O)c2cc(/C=C/c3ccccc3)cnc2O[C@@H]1CN(C)C(=O)C1CCC1,-20.9,-28.3
C[C@H]1CN([C@@H](C)CO)C(=O)c2cc(NC(=O)Cn3cnnn3)ccc2O[C@@H]1CN(C)C(=O)Nc1ccc2c(c1)OCO2,43.9,18.3
C[C@H](NC(=O)C[C@@H]1CC[C@@H](NC(=O)C2CCOCC2)[C@@H](CO)O1)c1ccccc1,9.9,11.6
CCCNC(=O)N(C)C[C@@H]1Oc2cc(C3=CCCC3)ccc2S(=O)(=O)N([C@H](C)CO)C[C@H]1C,16.6,9.6
C[C@@H]1CCCCO[C@H](CN(C)CC2CCCCC2)[C@@H](C)CN([C@H](C)CO)C(=O)c2cc(NC(=O)c3ccccc3)ccc2O1,?,/

# Exported field by field: entries from further up
> C[C@H]1CN([C@@H](C)CO)C(=O)c2cc(NC(=O)Cn3cnnn3)ccc2O[C@@H]1CN(C)C(=O)Nc1ccc2c(c1)OCO2
- Vaccinia inh: 43.9
- Vaccinia inh Venus: 18.3

> C[C@H](NC(=O)C[C@@H]1CC[C@@H](NC(=O)C2CCOCC2)[C@@H](CO)O1)c1ccccc1
- Vaccinia inh: 9.9
- Vaccinia inh Venus: 11.6

> CCCNC(=O)N(C)C[C@@H]1Oc2cc(C3=CCCC3)ccc2S(=O)(=O)N([C@H](C)CO)C[C@H]1C
- Vaccinia inh: 16.6
- Vaccinia inh Venus: 9.6

> C[C@@H]1CCCCO[C@H](CN(C)CC2CCCCC2)[C@@H](C)CN([C@H](C)CO)C(=O)c2cc(NC(=O)c3ccccc3)ccc2O1
- Vaccinia inh: ?
- Vaccinia inh Venus: /

# 2 of the compounds above, bar-delimited:
Compound | Vaccinia inh | Vaccinia inh Venus
C[C@@H]1CN([C@H](C)CO)C(=O)c2cc(/C=C/c3ccccc3)cnc2O[C@@H]1CN(C)C(=O)C1CCC1 | -20.9 | -28.3
C[C@H]1CN([C@@H](C)CO)C(=O)c2cc(NC(=O)Cn3cnnn3)ccc2O[C@@H]1CN(C)C(=O)Nc1ccc2c(c1)OCO2 | 43.9 | 18.3
